# Bioassay records from PubChem BioAssay.
# Vaccinia inh – blocks a specific stage of Vaccinia orthopoxvirus infection; Vaccinia-infected cells, mCherry/Venus stage reporter fluorescence; active compounds read low; some inactives read as strong as hits; activity change (mCherry), % (no concentration beside the values); hit rate 0.01% among 89,000;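 active means mCherry past -33% and 40 or more points under the early reporter, replicates agreeing; inconclusive means past -33% without that gap or agreement; tested in A549 cells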;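 further: scaled between vehicle wells and reference inhibitor wells; 23 nL library stock went into each well; one replicate is shown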
# Vaccinia inh Venus – recorded beside Vaccinia inh, whose call it bears; activity change (Venus), %; measured here: Venus reporter, other viral stage;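 negative = less Venus signal; first of two replicates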
# Active calls of the source: *; ? = inconclusive; nt = no result given.
SMILES,Vaccinia inh,Vaccinia inh Venus
COc1ccccc1NC(=O)N1C[C@H]2[C@@H](c3ccccc31)[C@@H](CO)N2Cc1ccc2c(c1)OCO2,-4.6,-2.8
CCCN1[C@H](C(=O)NC2CCCC2)[C@@H](CO)[C@@H]2Cn3c(ccc(-c4cccnc4)c3=O)[C@@H]21,8.3,3.6
C[C@@H]1CN([C@@H](C)CO)C(=O)c2cccc(NC(=O)NC3CCCCC3)c2O[C@H]1CN(C)Cc1ccc(Cl)c(Cl)c1,?,nt
Cc1noc(C)c1NC(=O)N(C)C[C@@H]1Oc2c(NC(=O)c3nc4ccccc4s3)cccc2C(=O)N([C@H](C)CO)C[C@H]1C,7.4,2.4
C[C@H](O)C#Cc1ccc2c(c1)O[C@@H](CN(C)C(=O)C1CCCCC1)[C@@H](C)CN([C@H](C)CO)S2(=O)=O,4.6,7.6
COc1ccc(S(=O)(=O)N(C)C[C@@H]2OCCCC[C@@H](C)Oc3ccc(NS(=O)(=O)c4ccc(F)cc4)cc3C(=O)N([C@@H](C)CO)C[C@@H]2C)cc1,14.8,4.6
COc1ccc(S(=O)(=O)N(C)C[C@H]2OCCCC[C@@H](C)Oc3ccc(NC(=O)c4ccccc4)cc3C(=O)N([C@H](C)CO)C[C@@H]2C)cc1,8.7,1.8
N#C[C@H]1[C@@H](c2ccc(C#CC3(O)CCCC3)cc2)[C@@H](CO)N1C(=O)C1CCCC1,3.0,3.7
COCC(=O)Nc1ccc2c(c1)C(=O)N(C)C[C@@H](OC)[C@@H](C)CN(Cc1cccnc1)[C@@H](C)CO2,4.0,2.0
C[C@@H]1CN([C@H](C)CO)C(=O)c2cc(C#Cc3cccc(F)c3)cnc2O[C@@H]1CN(C)Cc1ccccn1,6.4,-1.6
OC[C@H]1[C@@H](c2ccccc2)C2(CN(Cc3cccnc3)C2)N1Cc1ccncc1,10.3,7.3
COCC(=O)N1C[C@H](C)[C@@H](OC)CN(C)C(=O)c2ccc(NC(=O)Nc3ccccc3)cc2OC[C@@H]1C,19.3,6.4
C[C@@H]1CN([C@@H](C)CO)C(=O)Cc2cc(NS(=O)(=O)c3ccc(Cl)cc3)ccc2O[C@H]1CN(C)CC1CC1,-9.4,-7.1
C[C@H]1CN([C@@H](C)CO)C(=O)Cc2cc(NS(C)(=O)=O)ccc2O[C@@H]1CN(C)C(=O)NC1CCCCC1,0.6,-2.7
C[C@H](CO)N1C[C@H](C)[C@@H](CN(C)Cc2ccc(C(=O)O)cc2)Oc2ccc(NC(=O)Nc3ccccc3)cc2C1=O,28.5,12.5
C[C@H]1CN([C@@H](C)CO)S(=O)(=O)c2ccc(/C=C/c3ccccc3)cc2O[C@@H]1CN(C)C(=O)Nc1ccc(F)cc1,?,nt
O=C(Cc1ccccc1)N1CC(=O)N2[C@@H](CO)[C@H](c3ccc(C#Cc4ccccc4)cc3)[C@@H]2C1,-31.8,-15.8
COc1ccc(S(=O)(=O)Nc2ccc3c(c2)C(=O)N([C@H](C)CO)C[C@H](C)[C@H](CN(C)Cc2ccc(C(=O)O)cc2)O3)cc1,12.0,10.4
CCC(=O)N1C[C@@H](C)[C@H](OC)CN(C)C(=O)c2cc(NC(=O)Nc3cccc(F)c3)ccc2OC[C@H]1C,11.4,9.0
CNC[C@H]1Oc2cc(C#CC3CCCCC3)ccc2S(=O)(=O)N([C@@H](C)CO)C[C@H]1C,?,nt
O=C(C[C@@H]1CC[C@@H](NC(=O)C2CCC2)[C@@H](CO)O1)NCCCN1CCOCC1,16.0,2.1
COc1ccc(S(=O)(=O)N(C)C[C@H]2OCCCC[C@@H](C)Oc3ccc(NC(=O)c4ccccc4)cc3C(=O)N([C@@H](C)CO)C[C@@H]2C)cc1,-24.3,-23.5
O=C(c1cccc(F)c1)N1CCCCN2[C@H](CO)[C@@H](c3ccc(/C=C/c4ccccc4)cc3)[C@@H]2C1,?,nt
O=C(Nc1ccccc1)N1CC(=O)N2[C@H](CO)[C@H](c3ccc(C#CC4CC4)cc3)[C@H]2C1,-24.3,-22.5
CNC[C@@H]1Oc2ccc(NS(=O)(=O)c3ccc(C)cc3)cc2CC(=O)N([C@@H](C)CO)C[C@H]1C,6.5,3.1

# Compounds shown so far containing fluorine:
SMILES,Vaccinia inh,Vaccinia inh Venus
COc1ccc(S(=O)(=O)N(C)C[C@@H]2OCCCC[C@@H](C)Oc3ccc(NS(=O)(=O)c4ccc(F)cc4)cc3C(=O)N([C@@H](C)CO)C[C@@H]2C)cc1,14.8,4.6
C[C@@H]1CN([C@H](C)CO)C(=O)c2cc(C#Cc3cccc(F)c3)cnc2O[C@@H]1CN(C)Cc1ccccn1,6.4,-1.6
C[C@H]1CN([C@@H](C)CO)S(=O)(=O)c2ccc(/C=C/c3ccccc3)cc2O[C@@H]1CN(C)C(=O)Nc1ccc(F)cc1,?,nt
CCC(=O)N1C[C@@H](C)[C@H](OC)CN(C)C(=O)c2cc(NC(=O)Nc3cccc(F)c3)ccc2OC[C@H]1C,11.4,9.0
O=C(c1cccc(F)c1)N1CCCCN2[C@H](CO)[C@@H](c3ccc(/C=C/c4ccccc4)cc3)[C@@H]2C1,?,nt

# New compounds follow.
SMILES,Vaccinia inh,Vaccinia inh Venus
CCC(=O)N1[C@@H]2c3ccc(C4=CCCCC4)c(=O)n3C[C@H]1[C@H](CO)[C@H]2C(=O)N[C@H](C)c1ccccc1,7.5,0.0
C[C@H](CO)N1C[C@H](C)[C@H](CN(C)CC2CCCCC2)OCCCC[C@H](C)Oc2ccc(NC(=O)Nc3ccc(F)cc3)cc2C1=O,?,nt
C[C@@H]1CCCCO[C@@H](CN(C)C(=O)c2ccccc2)[C@@H](C)CN([C@@H](C)CO)C(=O)c2cc(NC(=O)Cc3ccccc3)ccc2O1,-3.8,-8.4
C[C@@H]1CCCCO[C@H](CN(C)S(=O)(=O)c2ccc(Cl)cc2)[C@H](C)CN([C@@H](C)CO)C(=O)c2cc(NC(=O)C3CCCCC3)ccc2O1,-34.4,-18.1
CC(C)NC(=O)Nc1ccc2c(c1)C(=O)N([C@@H](C)CO)C[C@@H](C)[C@@H](CN(C)C(=O)NC(C)C)OCCCC[C@H](C)O2,18.9,9.5
C[C@@H]1CCCCO[C@@H](CN(C)Cc2ccc3c(c2)OCO3)[C@H](C)CN([C@@H](C)CO)C(=O)c2cc(NC(=O)CCC(F)(F)F)ccc2O1,-18.0,-13.2
CNC[C@H]1Oc2cc(C#CC3CCCC3)ccc2S(=O)(=O)N([C@@H](C)CO)C[C@@H]1C,?,nt
COc1cccc(C(=O)Nc2ccc3c(c2)C(=O)N(C)[C@H]2CC[C@H](CC(=O)N[C@H](C)c4ccccc4)O[C@H]2CO3)c1,15.3,5.6
C[C@@H](NC(=O)[C@H]1[C@H](CO)[C@H]2Cn3c(ccc(-c4ccncc4)c3=O)[C@H]2N1C)c1ccccc1,5.8,-5.3
CCCC#Cc1ccc([C@@H]2[C@H]3CN(C(=O)c4ccc(F)cc4)CC(=O)N3[C@H]2CO)cc1,16.3,-0.8
COC(=O)[C@@H]1[C@@H](CO)[C@@H]2Cn3c(cccc3=O)[C@@H]2N1CC1CCCCC1,10.1,21.1
COc1ccc(NC(=O)N(C)C[C@@H]2Oc3cc(-c4ccc(C)cc4)ccc3S(=O)(=O)N([C@H](C)CO)C[C@H]2C)cc1,?,nt
O=C(c1cccnc1)N1CC(=O)N2[C@H](CO)[C@@H](c3ccc(C#CCC4CCCC4)cc3)[C@H]2C1,?,nt
COc1ccc(CN(C)C[C@@H]2Oc3ccc(NC(=O)Nc4ccc(OC)cc4)cc3CC(=O)N([C@H](C)CO)C[C@@H]2C)cc1,-8.7,-11.1
C[C@H](CO)N1C[C@H](C)[C@@H](CN(C)Cc2ccc3c(c2)OCO3)Oc2cc(-c3cccc(C(=O)N(C)C)c3)ccc2S1(=O)=O,-33.9,-29.3
C[C@@H]1CN([C@H](C)CO)C(=O)Cc2cc(NC(=O)Nc3ccc(F)cc3)ccc2O[C@@H]1CN(C)S(=O)(=O)c1ccc(F)cc1,-6.6,-2.3
C[C@H](CO)N1C[C@H](C)[C@H](CN(C)CC2CC2)Oc2c(NC(=O)c3cnccn3)cccc2C1=O,-1.4,7.2
C[C@@H]1CCCCO[C@H](CN(C)C(=O)c2ccncc2)[C@@H](C)CN([C@@H](C)CO)C(=O)c2cc(NC(=O)c3ccncc3)ccc2O1,23.6,10.0
O=C(NC1CCCCC1)[C@@H]1[C@@H](CO)[C@@H]2Cn3c(cccc3=O)[C@H]1N2CC1CCCCC1,15.2,7.2
C[C@@H](NC(=O)C[C@@H]1C=C[C@@H](NS(=O)(=O)c2cccc(F)c2)[C@H](CO)O1)c1ccccc1,-8.7,0.1
CCC(=O)N[C@H]1CC[C@@H](CC(=O)NCc2ccc(OC)cc2)O[C@H]1CO,-6.7,-0.4
C[C@H]1CN([C@@H](C)CO)C(=O)c2cccc(NC(=O)C3CCOCC3)c2O[C@@H]1CN(C)C(=O)NC1CCCCC1,-3.1,2.2
O=C(C[C@H]1CC[C@H]2[C@@H](COC[C@H](O)CN2Cc2ccccc2F)O1)N[C@H]1CCN(Cc2ccccc2)C1,-8.9,-13.7
CC(C)CC#Cc1ccc([C@H]2[C@H]3CN(S(=O)(=O)c4ccc(F)cc4)CCCCN3[C@H]2CO)cc1,16.5,-12.3
C[C@@H]1CN([C@H](C)CO)C(=O)c2cc(C#Cc3cccnc3)cnc2O[C@H]1CN(C)S(C)(=O)=O,8.2,12.3

# More results follow.
SMILES,Vaccinia inh,Vaccinia inh Venus
C[C@@H]1CN([C@H](C)CO)C(=O)c2cc(NC(=O)Nc3cccc4ccccc34)ccc2O[C@H]1CN(C)S(=O)(=O)c1ccc(Cl)cc1,8.6,11.9
C[C@@H]1CN([C@H](C)CO)C(=O)c2cccc(NS(=O)(=O)c3ccc(F)cc3)c2O[C@H]1CN(C)Cc1ccc(-c2ccccc2)cc1,-28.6,-26.8
CN1C(=O)c2cc(NC(=O)c3ccc(F)cc3)ccc2OC[C@@H]2O[C@@H](CC(=O)O)CC[C@@H]21,8.7,0.0
C[C@H](CO)N1C[C@H](C)[C@@H](CN(C)Cc2ccc(Oc3ccccc3)cc2)Oc2ccc(NC(=O)CCC(F)(F)F)cc2C1=O,-18.3,-12.9
Cc1ccc(S(=O)(=O)N(C)C[C@H]2OCCCC[C@@H](C)Oc3ccc(NC(=O)Nc4ccc5c(c4)OCO5)cc3C(=O)N([C@H](C)CO)C[C@@H]2C)cc1,16.9,-3.0
C[C@@H]1CN([C@H](C)CO)S(=O)(=O)c2ccc(C#CCN(C)C)cc2O[C@@H]1CN(C)Cc1ccc2c(c1)OCO2,0.0,-5.3
O=C(C[C@@H]1C[C@@H]2c3cc(NC(=O)C4CCC4)ccc3O[C@@H]2[C@@H](CO)O1)NCc1ccc2c(c1)OCO2,8.9,8.1
CCC(=O)N1C[C@@H](C)[C@H](OC)CN(C)C(=O)c2cc(NC(=O)CC(F)(F)F)ccc2OC[C@@H]1C,1.7,6.4
C[C@H](CO)N1C[C@H](C)[C@@H](CN(C)C(=O)CN2CCOCC2)Oc2ncc(C#CCN(C)C)cc2C1=O,32.8,10.3
C/C=C/c1cnc2c(c1)C(=O)N([C@@H](C)CO)C[C@@H](C)[C@H](CN(C)C(=O)Nc1ccc(F)cc1)O2,3.5,-0.1
C[C@@H]1CN([C@H](C)CO)C(=O)c2cccc(NC(=O)c3nc4ccccc4s3)c2O[C@@H]1CN(C)C,3.1,-2.1
C[C@@H]1CN([C@H](C)CO)C(=O)c2cc(NC(=O)c3ccccc3)ccc2O[C@@H](C)CCCCO[C@@H]1CN(C)S(=O)(=O)c1ccc(Cl)cc1,-9.4,-0.8
CO[C@H]1CN(C)C(=O)c2cc(NC(=O)C3CC3)ccc2OC[C@H](C)N(Cc2ccc(F)cc2)C[C@@H]1C,-9.8,-4.0
CO[C@H]1CN(C)C(=O)c2ccc(NC(=O)CC(F)(F)F)cc2OC[C@H](C)N(C(=O)c2ccccc2F)C[C@H]1C,7.1,8.7
O=C(Nc1ccccc1F)N[C@H]1CC[C@@H](CCNS(=O)(=O)c2ccc(Cl)cc2)O[C@@H]1CO,?,nt
C[C@@H]1CN([C@@H](C)CO)S(=O)(=O)c2ccc(-c3ccccc3)cc2O[C@H]1CN(C)Cc1ccccn1,?,nt
C[C@H](CO)N1C[C@H](C)[C@@H](CN(C)S(C)(=O)=O)Oc2ncc(C#Cc3cccnc3)cc2C1=O,6.4,10.1
CCCC#Cc1cnc2c(c1)C(=O)N([C@@H](C)CO)C[C@H](C)[C@H](CN(C)S(=O)(=O)c1ccccc1)O2,-6.5,-8.6
O=C(C[C@@H]1C[C@H]2c3cc(NS(=O)(=O)c4ccc(F)cc4)ccc3O[C@H]2[C@@H](CO)O1)NCc1ccccc1,23.3,15.5
CN(C)C(=O)c1ccc(-c2ccc([C@@H]3[C@H](C#N)N(C(=O)C4CCCC4)[C@H]3CO)cc2)cc1,-29.1,-20.5
C/C=C/c1ccc2c(c1)O[C@H](CN(C)Cc1cccc(F)c1)[C@@H](C)CN([C@H](C)CO)S2(=O)=O,?,nt
COc1ccc(C#Cc2ccc([C@@H]3[C@@H](CO)N4CCCCN(S(=O)(=O)c5ccccc5)C[C@H]34)cc2)cc1,12.0,14.8
CC(=O)N1[C@@H](CO)[C@@H]2c3ccccc3N(S(=O)(=O)c3cccc(C)c3)C[C@@H]21,3.7,6.0
Cc1ccc(S(=O)(=O)N(C)C[C@@H]2OCCCC[C@H](C)Oc3ccc(NS(=O)(=O)c4cccs4)cc3C(=O)N([C@H](C)CO)C[C@@H]2C)cc1,-27.1,-24.0
Cc1noc(C)c1S(=O)(=O)Nc1ccc2c(c1)CC(=O)N([C@H](C)CO)C[C@H](C)[C@@H](CN(C)S(=O)(=O)c1ccc(Cl)cc1)O2,-1.2,-7.5
CCC(=O)Nc1ccc2c(c1)OC[C@@H](C)N(Cc1cccnc1)C[C@@H](C)[C@H](OC)CN(C)C2=O,9.7,4.4
Cc1ccc(S(=O)(=O)N(C)C[C@H]2Oc3ccc(NC(=O)NC(C)C)cc3C(=O)N([C@H](C)CO)C[C@H]2C)cc1,9.1,11.0

# Not all compounds are listed (hit frequency here may not be typical).
